# Yeast UUG start – yeast start codon fidelity modulation; activity score, % at 18.7 µM; S. cerevisiae UUG-firefly luciferase reporter, luminescence/redox ratio; 350,000 tested, 0.13% active;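 active means replicate mean at a twofold rise or more, about +100% in these data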;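 further: firefly luciferase made from a UUG start codon reports start codon fidelity; reporter light over untreated wells divided by growth signal over untreated wells; some hits fall short of that in this replicate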
# MT1-MMP act inh – inhibitors of human MT1-MMP activation | HT1080 RFP-PRO-GFP cells, GFP/RFP ratio fluorescence, overnight; percent of plate control window, DMSO zero | GFP/RFP ratio change, % at 20 µM | P50281 | AID 651647 | 360,000 tested, 0.061% active;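 active means GFP/RFP ratio change of at least 30% with cell ATP level not reduced by more than half and red fluorescence within 50% of control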; further: strong numbers were not always called active
#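 Assay system: HT1080 RFP-PRO-GFP cells | Dosing: 20 µM single dose, 1% DMSO | Incubation: Cells overnight before dosing, compound overnight, 37 °C, 5% CO2 | Evaluation: GFP/RFP fluorescence ratio | Control set: DMSO-only wells and HT1080 RFP-L50D-GFP cell wells as references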
# PABP FP inh – PABP-poly(A) binding inhibition; AID 2014; 290,000 tested, 1% active; PABP-poly(A) RNA binding, fluorescence polarization; inhibition, % at 35 µM; P11940;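 active means 50% or more with normal probe brightness, or confirmed in later tests; inconclusive means above 50% with abnormal brightness, or retests that disagree; inactive means below 50% or failed in later tests; about a fifth of its hits are not listed in these tables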;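 further: calls also rest on retests at 20 µM and on dose response follow-up; controls were probe without protein and protein plus probe with vehicle; some compounds called inactive have numbers as strong as hits; many hits fall short of the cut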
# Rce1 inh – blocks yeast Ras-converting enzyme | Q03530 | yeast membranes, quenched prenylated peptide cleavage fluorescence | calls only | 290,000 tested, 0.27% active | AID 2563;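 active means fall in fluorescence gain of 50% or more versus controls, with final raw signal at or below 3038400; inconclusive means same 50% fall but final raw signal above 3038400; inactive means fall in fluorescence gain under 50%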;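 further: plate controls were neutral control wells for no effect and wells lacking membranes for full effect; tested at 10 µM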
# Target sequence (Q03530 whole entry, looked up): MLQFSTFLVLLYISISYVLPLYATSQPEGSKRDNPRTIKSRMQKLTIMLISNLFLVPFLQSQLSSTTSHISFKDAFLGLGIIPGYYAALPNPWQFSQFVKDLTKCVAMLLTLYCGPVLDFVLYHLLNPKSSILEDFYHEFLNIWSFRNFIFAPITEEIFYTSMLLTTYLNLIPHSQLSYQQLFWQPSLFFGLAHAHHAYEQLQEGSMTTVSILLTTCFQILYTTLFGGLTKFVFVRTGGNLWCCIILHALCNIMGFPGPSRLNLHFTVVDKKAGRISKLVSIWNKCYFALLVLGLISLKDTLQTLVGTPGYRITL
# CSC inhib – cancer stem cell inhibition; AID 2717; inhibition, % at 7.5 µM; cancer stem cell-like cells viability, luminescence; 300,000 tested, 1.1% active;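 active means mean at 75% or more and at least half the replicates too; inconclusive means mean and replicates disagree; tested in HMLE shEcad cells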;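 further: 0% = median of negative and 100% = median of positive control wells; the first replicate is given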
# Env fusion inh – inhibitors of HIV Env-mediated cell fusion; HeLa-JRFL Env/CEM21 cell fusion, luciferase; inhibition, % at 12.3 µM; 360,000 tested, 1.1% active; AID 651610;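 active means mean replicate inhibition score of at least 50 and every replicate individually at or above 50; inconclusive means only one of the two criteria met; inactive means mean below 50 and not all replicates reaching 50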;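 further: 0% = plate neutral controls and 100% = maraviroc near 300 nM; one replicate is shown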
# eIF4H FP inh – inhibitors of RNA binding by human eIF4H; Q15056; eIF4H fluorescence polarization binding assay; inhibition, % at 35 µM; 290,000 tested, 0.94% active;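 active means 50% or more with normal probe brightness, or confirmed in later tests; inconclusive means above 50% with abnormal brightness, or retests that disagree; inactive means below 50% or failed in later tests; about a fifth of its hits are not listed in these tables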;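 further: calls also rest on retests at 20 µM and on dose response follow-up; 0% = protein and probe with vehicle and 100% = probe without protein; strong numbers were not always called active; many hits fall short of the cut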
# eIF4H FP inh retest – second read-out of eIF4H FP inh, no call of its own (marks repeat the call); inhibition, %; compound at 20 µM; confirmation average;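 mean of two retest wells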
# PABP FP inh retest – also measured in PABP FP inh; calls as there; inhibition, %; compound at 20 µM; confirmation repeats;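 mean of two retest wells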
# MT1-MMP act inh RFP – also measured in MT1-MMP act inh; calls as there; RFP signal change, %; measured here: RFP expression control read;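 0 = vehicle wells; hits needed this value within 50% of zero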
# * = called active by the depositor; i = inactive; ? = inconclusive; . = no result given. A portion of the library; rates above refer to the full screens.
SMILES,Yeast UUG start,MT1-MMP act inh,MT1-MMP act inh RFP,PABP FP inh,Rce1 inh,CSC inhib,Env fusion inh,eIF4H FP inh,others
Cc1scc(C(=O)NNC(=S)NC(C)c2ccccc2)c1C (stereo unspecified),.,6,0,8,i,20,6,8,
O=C(CCN1CCc2ccccc2C1)Nc1ccccc1F,0,1,2,10,i,-7,-68,-6,
NC(=O)c1ccc(NC(=O)CSc2nnc(C3CC3)n2C2CC2)cc1,-15,1,2,.,.,-15,.,.,
CCOc1ccccc1CNn1nnnc1N,-20,5,0,-5,i,-19,-59,-10,
O=C(C[C@H]1C/C=C\CC[C@H](Cc2ccc(F)cc2)C(=O)OC[C@H]2CCCN2C1=O)N[C@@H](CO)Cc1ccccc1,1,1,-5,.,.,-9,-16,.,
O=C(N/N=C1/C(=O)c2cccc3cccc1c23)c1ccc(Cl)cc1,-9,3,5,34,i,38,-30,64,eIF4H FP inh retest=5;PABP FP inh retest=4
C=CCOC(=O)C1=C(C)NC(=O)NC1C1CC=CCC1 (stereo unspecified),.,1,0,6,i,-10,.,-2,
CC(=O)c1cn(CC(=O)Nc2ccc(C)cc2C)c2ccccc12,1,2,-23,3,i,-20,.,2,
CC1(COS(N)(=O)=O)CCCCC1,-11,1,0,3,i,-5,.,-4,
Cc1cc(C)n(C(=O)CCNC(=O)c2ccccc2Cl)n1,-1,0,8,4,i,5,.,-10,
COc1cccc(/C=C/C(=O)OCC(=O)NC(=O)NC2CCCC2)c1,5,2,7,.,.,.,-3,.,
Cc1cccc(-c2noc(CN(C(=O)c3ccc(Br)o3)C(C)C)n2)c1,3,16,3,-6,i,-1,.,-14,
C/C(=N\NC(=O)COc1c(C)cccc1C)c1cccs1,.,0,-1,2,i,-5,-19,-16,
CN(C(=O)c1ccc(OC2CCN(C(=O)c3cccnc3)CC2)cc1)C1CCCCC1,.,-8,-6,-1,i,-3,-88,-4,
COc1ccc(-c2csc(N3CCN(C(=O)c4ccco4)CC3)n2)cc1,-5,-3,-4,1,i,2,-3,1,
CCOC(=O)c1sc2nc(C)nc(SCC(=O)N(C)C3CCS(=O)(=O)C3)c2c1C (stereo unspecified),.,2,-1,23,i,-7,-9,-6,
COc1cccc2c(=O)c(C(=O)NCCc3ccccc3)c[nH]c12,-22,9,0,.,.,.,-13,.,
CCN(CC(=O)NCc1ccc2c(c1)OCO2)S(=O)(=O)c1ccc(F)cc1,1,1,0,9,i,-9,0,-4,
CC(C)N1CCC(N2CCN(Cc3cnc(-c4ccccc4)s3)CC2CCO)CC1 (stereo unspecified),.,7,8,0,i,-14,-11,-10,
O=C1N[C@H](Cc2ccccc2)COC(=O)[C@H](Cc2ccc(F)cc2)CC/C=C/C[C@H]1CC(=O)N(CCO)Cc1ccccc1,6,-8,-13,.,.,37,1,.,
O=C(NCc1ccncc1)C12CC3CC(CC(C3)C1)C2,-12,2,7,5,i,-17,.,6,
Cc1nn(CC(C)C)c(Cl)c1C(=O)NCC1CCCO1 (stereo unspecified),3,-3,4,.,.,.,-4,.,
CC(C)OC(=O)CSc1nc(N)c(C#N)cc1C#N,.,5,10,-5,i,-16,-12,1,
CN(Cc1ccco1)S(=O)(=O)c1nnc(NC(=O)c2ccccc2)s1,-18,-2,0,.,i,5,.,.,
N#Cc1ccc(/C=C/C(=O)c2ccco2)cc1,.,2,3,3,i,-3,-10,11,
Cc1ccc2c(c1)N(C(=O)NC1CCCCC1)C(C)(C)CC2C (stereo unspecified),-11,2,-2,-1,i,0,2,-4,
O=C(NCCCC1CCCC1)C1CCC(=O)N(Cc2ccc(Cl)cc2)C1 (stereo unspecified),-1,3,-3,8,i,-7,35,-8,
COc1cc(/C=N/NC(=O)c2ccoc2C)cc(OC)c1O,-11,.,.,9,i,-11,-446,-2,
CCOC(=O)N1CCN(C(=O)C(C)(C)Oc2ccc(Cl)cc2)CC1,1,-2,0,-6,i,-18,-6,-2,
COc1ccc(NC(=O)C2CCN(S(=O)(=O)c3ccc(OC)c(OC)c3)CC2)cc1,11,.,.,7,i,-2,.,-5,
CC(C)(C)C(=O)COC(=O)c1ccc(N)c([N+](=O)[O-])c1,.,-1,2,-8,i,-6,-11,-4,
Cc1cc(NCCCN2CCOCC2)n2ncc(-c3ccccc3)c2n1,-16,-2,-1,-8,i,31,.,-5,
COCCNC(=S)N/N=C(\C)c1ccc(OC(F)F)cc1,.,1,1,-5,i,-13,0,-8,
NC1=NC(=Nc2ccc(Br)cc2)c2ccccc21,-22,-4,-1,4,i,35,-7,-2,
NC(=O)c1cc2c3ccccc3ccn2c1-c1ccccc1,-14,-47,-18,?,i,53,i,?,
CC(C)Oc1nc(-c2ccccc2Cl)nc2ccccc12,.,1,2,-5,i,0,7,-8,
Cc1cc(C)nc(NCCC(=O)O)n1,-23,1,6,-2,i,-14,1,8,
Cc1ccc(NC(=O)COC(=O)c2cccc(S(=O)(=O)N3CCCCCC3)c2)cc1,-7,-1,9,.,.,.,-13,.,
COc1ccc2nc(Cl)c(C#N)cc2c1,-4,-2,3,-3,i,-7,-9,-2,
Cc1ccc(-c2cc(C(=O)N/N=C/c3ccoc3)c3ccccc3n2)cc1,-3,1,5,-1,i,-16,-7,-1,

# Molecules listed so far that have a cyano group, in the order listed:
SMILES,Yeast UUG start,MT1-MMP act inh,MT1-MMP act inh RFP,PABP FP inh,Rce1 inh,CSC inhib,Env fusion inh,eIF4H FP inh,others
CC(C)OC(=O)CSc1nc(N)c(C#N)cc1C#N,.,5,10,-5,i,-16,-12,1,
N#Cc1ccc(/C=C/C(=O)c2ccco2)cc1,.,2,3,3,i,-3,-10,11,
COc1ccc2nc(Cl)c(C#N)cc2c1,-4,-2,3,-3,i,-7,-9,-2,

# More records
SMILES,Yeast UUG start,MT1-MMP act inh,MT1-MMP act inh RFP,PABP FP inh,Rce1 inh,CSC inhib,Env fusion inh,eIF4H FP inh,others
COC(=O)C1C2C=CC3(CN(CC4CCCO4)C(=O)C13)O2 (stereo unspecified),-5,9,-2,1,i,11,11,-3,
COc1ccc(N2CCN(C(=O)c3cccc(F)c3)CC2)c([N+](=O)[O-])c1,-17,-2,0,-4,i,-19,-2,-2,
O=C1OCCC1Sc1nc2ccccc2[nH]1 (stereo unspecified),-23,3,4,0,i,-6,-11,5,
Cc1c(NC(=O)C(C)OC(=O)CC2Sc3ccccc3NC2=O)c(=O)n(-c2ccccc2)n1C (stereo unspecified),11,-4,1,-8,i,12,-22,-3,
O=C(Cc1ccc(Cl)cc1)NCCc1ccc(F)cc1,-1,-1,1,.,i,1,21,.,
Cc1cc(C)n(CC(O)CN(c2cccc([N+](=O)[O-])c2)S(=O)(=O)c2ccccc2)n1 (stereo unspecified),-9,1,1,6,.,9,.,-8,
Cc1ccc(Cl)cc1NC(=S)N(Cc1cccs1)C1CCCC1,-18,0,2,0,i,18,25,5,
C#CCn1c(=NC(=O)c2cccs2)sc2cccc(OC)c21,-21,-4,-14,-7,i,-4,3,0,
CC1(C)C(=O)Nc2ccccc2N1C(=O)COC(=O)c1ccc(Cl)c(S(=O)(=O)NCc2ccccc2)c1,-8,3,-3,-2,i,6,-90,4,
CCN(CC)S(=O)(=O)c1ccc(OC(C)C)c(NC(=O)c2c3c(nc4ccccc24)CCN(Cc2ccccc2)C3)c1,0,-16,-15,19,i,.,59*,-12,
C=CC[C@@H](CC(=O)NCCO)C(=O)NC[C@@H](OC(=O)[C@H](CC=C)CC(=O)OC(C)(C)C)c1ccccc1,0,-2,2,.,.,.,-5,.,
COc1ccc(-c2nnn(CC(=O)N(CC(=O)NCCC(C)C)Cc3cccs3)n2)cc1OC,.,-2,4,-3,i,-7,?,-1,
Cc1nn(CC(=O)NCc2ccc(-n3cccn3)cc2)c(C)c1[N+](=O)[O-],.,3,8,-10,i,5,1,2,
COc1ccccc1N1CCC(N2CCN(CC(C)(C)C)C(CCO)C2)CC1 (stereo unspecified),-16,0,-3,-9,i,5,-4,3,
Cc1nc(C)c(C(=O)NNC(=O)c2ccc(Br)cc2)s1,.,-2,-4,16,i,-24,10,6,
COc1ccc(CNC(=O)CCS(=O)(=O)c2cc3c(cc2Cl)NC(=O)CO3)cc1,-12,-1,-1,6,i,4,6,-4,
Cc1occc1C(=O)NNC(=O)NC12CC3CC(CC(C3)C1)C2,-8,8,5,0,i,4,.,-11,
CCc1nc(SCC(=O)Nc2ccccc2C)n[nH]1,-6,-5,0,-4,i,-12,-29,2,
CCOc1ccc(C(=O)OCC(=O)NCC2CCCO2)cc1 (stereo unspecified),-14,-4,1,.,.,-8,.,.,
Nc1ccc(NS(=O)(=O)c2ccccc2)cc1,-7,1,-1,0,i,19,-1,14,

# In the list so far, 3 contain an NH in an aromatic ring:
SMILES,Yeast UUG start,MT1-MMP act inh,MT1-MMP act inh RFP,PABP FP inh,Rce1 inh,CSC inhib,Env fusion inh,eIF4H FP inh,others
COc1cccc2c(=O)c(C(=O)NCCc3ccccc3)c[nH]c12,-22,9,0,.,.,.,-13,.,
O=C1OCCC1Sc1nc2ccccc2[nH]1 (stereo unspecified),-23,3,4,0,i,-6,-11,5,
CCc1nc(SCC(=O)Nc2ccccc2C)n[nH]1,-6,-5,0,-4,i,-12,-29,2,

# Following part.
SMILES,Yeast UUG start,MT1-MMP act inh,MT1-MMP act inh RFP,PABP FP inh,Rce1 inh,CSC inhib,Env fusion inh,eIF4H FP inh,others
CCC1ON(c2ccccc2)C2c3nc4ccccc4n3CC12 (stereo unspecified),-9,-6,7,2,i,0,-1,-3,
CC1(C)SC(=S)N(/N=C/c2cccnc2)C1N(O)C(=O)NC1CCCCC1 (stereo unspecified),.,-1,2,-8,i,-15,10,-8,
COc1cccc(-c2cc(C(=O)Nn3cnnc3)c3ccccc3n2)c1,-23,0,0,17,i,6,.,57,eIF4H FP inh retest=8;PABP FP inh retest=-5
Cn1c2ccccc2c2c(C(=O)NCc3ccco3)cn(C3CCCCC3)c(=O)c21,-5,-7,-3,22,i,-2,6,8,
O=C(O)c1[nH]c2ccccc2c1C=NCc1ccccc1Cl,-4,3,6,31,i,11,10,11,

# In the list so far, eight contain a furan ring, fused or not.
SMILES,Yeast UUG start,MT1-MMP act inh,MT1-MMP act inh RFP,PABP FP inh,Rce1 inh,CSC inhib,Env fusion inh,eIF4H FP inh,others
Cc1cccc(-c2noc(CN(C(=O)c3ccc(Br)o3)C(C)C)n2)c1,3,16,3,-6,i,-1,.,-14,
COc1ccc(-c2csc(N3CCN(C(=O)c4ccco4)CC3)n2)cc1,-5,-3,-4,1,i,2,-3,1,
CN(Cc1ccco1)S(=O)(=O)c1nnc(NC(=O)c2ccccc2)s1,-18,-2,0,.,i,5,.,.,
N#Cc1ccc(/C=C/C(=O)c2ccco2)cc1,.,2,3,3,i,-3,-10,11,
COc1cc(/C=N/NC(=O)c2ccoc2C)cc(OC)c1O,-11,.,.,9,i,-11,-446,-2,
Cc1ccc(-c2cc(C(=O)N/N=C/c3ccoc3)c3ccccc3n2)cc1,-3,1,5,-1,i,-16,-7,-1,
Cc1occc1C(=O)NNC(=O)NC12CC3CC(CC(C3)C1)C2,-8,8,5,0,i,4,.,-11,
Cn1c2ccccc2c2c(C(=O)NCc3ccco3)cn(C3CCCCC3)c(=O)c21,-5,-7,-3,22,i,-2,6,8,

# High-throughput results deposited in PubChem BioAssay by several laboratories.
